Screening results: PubChem, several laboratories
MT1-MMP reporter – MT1-MMP gene expression reporter suppression – cell-based, luciferase reporter, luminescence (AID 618); MT1-MMP promoter luciferase reporter cells, luminescence; calls from a first round at 10 µM; hits with a dose series show EC50 in µM; 87,000 compounds, 0.62% hits;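 active = over half of the reporter light lost at 10 µM or EC50 under 50 µM; inactive = the rest and hits that failed the dose series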;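 also: actives suppress MT1-MMP promoter-driven transcription so potencies describe inhibitors; HT1080 fibrosarcoma cells; overnight exposure; toxic or luciferase-blocking compounds were not removed from the actives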
WNV NS2B-NS3 inh – inhibitors of West Nile virus NS2B-NS3 protease; 65,000 compounds, 0.18% hits; z-score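 (tested at a level between 10 and 100 µM)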; WNV NS2B-NS3 protease, fluorogenic substrate Ex360/Em465; stronger effect = lower value;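 active = z-score at -3 or under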;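 also: score is relative to mean and spread of the compound wells of a plate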
Target sequence (P06935 1371-1501 limits assumed): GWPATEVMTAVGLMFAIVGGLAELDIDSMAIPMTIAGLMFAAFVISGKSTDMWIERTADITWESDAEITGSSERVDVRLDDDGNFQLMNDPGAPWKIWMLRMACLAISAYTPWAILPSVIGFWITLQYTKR
Target sequence (P06935 1502-1679 limits assumed): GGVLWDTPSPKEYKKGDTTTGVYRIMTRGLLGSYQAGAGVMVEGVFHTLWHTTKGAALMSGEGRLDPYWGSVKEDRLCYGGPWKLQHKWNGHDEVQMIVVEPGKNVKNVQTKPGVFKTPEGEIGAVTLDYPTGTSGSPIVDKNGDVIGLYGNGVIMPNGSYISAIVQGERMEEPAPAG
Hsc70 ATP site – small molecules displacing fluorescent ligand from Hsc70 – biochemical, fluorescence polarization, primary screen (AID 568); Hsc70 fluorescence polarization, probe displacement; higher % means a stronger effect; strong numbers were not always called active; one-dose displacement, % at 20 µM; IC50 in µM for titrated hits; 83,000 tested, under 10 active;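 active = displacement above 50% without optical interference and an IC50 on retest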;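 also: ATPase domain with a fluorescein-tagged ATP probe; 0% = vehicle and 100% = excess ADP; read after one hour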
The depositor's hits bear a star; i = inactive; x = not tested or not shown; + = active, no number. Some of the compounds tested; count on the stated rates, not on these rows.

mol,MT1-MMP reporter,WNV NS2B-NS3 inh,Hsc70 ATP site
O=C1CC(c2ccccc2)C(C(=O)O)N1 (stereo not given),i,0.28,-0.3%
CCn1c(C(c2ccccc2)c2ccccc2)n[nH]c1=S,i,x,2.6%
c1ccc(-c2cc(N3CCOCC3)nc(-c3ccccc3)n2)cc1,i,-0.2,0.2%
O=C(CSc1nnc(C2COc3ccccc3O2)o1)N1CCCCC1 (stereo not given),i,-0.32,3.9%
Cc1cccc2cc(C(c3nnnn3C3CCCC3)N3CCOCC3)c(=O)[nH]c12 (stereo not given),i,-0.18,-1.2%
CCOc1ccc(C(=O)CCC(=O)O)cc1,i,x,-0.2%
Cc1ccc(-n2nc3c(c2NC(=O)c2ccc4c(c2)OCO4)CS(=O)C3)cc1 (stereo not given),i,-0.17,-2.9%
Cc1c(C)c2cc(Cl)c(OCc3nn[nH]n3)cc2oc1=O,i,0.63,5.9%
CCc1sc(C(=O)NC2CCN(C)CC2)cc1Br,i,0.98,2.1%
CC(=O)c1cc(CN2CCCCC2)cc(OC(C)C)c1,i,-0.47,-4.7%
C=CCSc1ncc(C#N)c(N)n1,i,x,2.5%
CCNC(=O)c1sccc1-n1cccc1,i,x,2.6%
Cc1cccc(-n2c(SCC(=O)Nc3nonc3C)nnc2-c2ccoc2C)c1,i,1.1,3.2%
O=C(c1ccccc1)N1CCN(C2CC(=O)N(CCc3ccccc3)C2=O)CC1 (stereo not given),i,-0.23,-4.3%
COC(=O)Cn1c(=NC(=O)CSCC(=O)NC2CCCCC2)sc2cc(OC)ccc21,i,0.28,-3.9%
CCOC(=O)c1oc2ccccc2c1NC(=O)COC,i,0.57,-8.5%
CC(C)c1[nH]nc2c1C(c1cccc(OC(=O)N3CCOCC3)c1)C(C#N)=C(N)O2 (stereo not given),i,0.83,-2.3%
CCCN1C(=O)c2ccccc2NC1c1cc(OC)c(OC)c(OC)c1 (stereo not given),i,x,2.1%
Cc1c(C(=O)c2ccc(Cl)cc2Cl)cnc2cc3c(cc12)OCO3,i,x,-0.2%
CC(C)CCNC(=O)c1cnn2c(C(F)(F)F)cc(-c3ccco3)nc12,i,-0.37,-3.3%
O=C(NCc1ccco1)Nc1ccc2snnc2c1,i,x,-3.5%
COC(=O)C1=C(C)N(CCc2ccc(OC)cc2)C(=O)C1,i,-0.67,0.5%
CSc1nc(C)c2c(n1)OC(CN1C(=O)c3ccccc3C1=O)C2 (stereo not given),i,0.24,-3.7%
CC(=O)c1c(C)[nH]c(C(=O)N2CCCCCC2)c1C,i,-0.76,10%
O=C(c1ccc2c(c1)OCCCO2)c1cccs1,i,-1.5,-0.1%
O=C1c2ccccc2C(=O)N1CCc1nc(-c2cccnc2)no1,i,-0.89,5.8%
CN1CCN(C(=O)c2sc(=S)n(-c3ccccc3)c2N)CC1,i,-0.83,6.2%
Cc1ccc2c(c1)C(c1ccccc1)N(C(=O)c1ccc(Br)o1)CC(=O)N2 (stereo not given),i,-0.92,-3.9%
CCOc1ccc(CCNC(=O)C2CCN(C(=O)N(C)C)CC2)cc1OCC,i,-1.7,-9.4%
O=C(NCCN1CCN(C(=O)c2cc3ccccc3oc2=O)CC1)c1cc2ccccc2oc1=O,i,0.55,-29%
Cc1noc(NS(=O)(=O)c2ccc(NC(=O)CSc3ncccn3)cc2)c1C,i,-0.63,4.7%
Cc1cc(C(=O)OCC(=O)Nc2cc(C)on2)c2ccccc2n1,i,-0.63,4.4%
CC1CC(C)CN(c2ncnc3c2cnn3Cc2ccc(Cl)cc2)C1 (stereo not given),i,1.8,0.8%
COc1ccc2c(Cl)c(-c3nnc4n3CCCCC4)sc2c1,i,-0.08,-3.3%
CCOc1ccc(C(=O)Cc2ccc3oc(C(=O)O)cc3c2)c(O)c1,i,0.74,-3.8%
COc1cc(C(=O)NCc2cn3ccccc3n2)cc(OC)c1OC,i,0.21,0.7%
O=C(NCc1ccc2c(c1)OCO2)C1CC(=O)N(C2CCCCCC2)C1 (stereo not given),i,-1.2,4.1%
CCOC(=O)c1oc2ccc(S(=O)(=O)N3CCOCC3)cc2c1C,i,0.55,7.8%
CC1CC(C)CN(C(=O)CSc2nnc(-c3ccc(F)cc3)o2)C1 (stereo not given),i,-0.45,2.0%
Cc1cc(C)n(-c2ccc(C(=O)OCC(=O)c3ccc(Br)s3)cc2)n1,i,1.5,-14%
O=C(NCCCN1CCN(c2cccc(Cl)c2)CC1)c1ccc(N2CCCC2=O)cc1,i,-0.01,-10%
CN(C)CC(=O)Nc1cc(C(F)(F)F)ccc1Cl,i,-0.38,0.0%
Cc1cc2cc(CNC(=O)CCC(=O)O)ccc2[nH]1,i,-0.46,-6.1%
N#Cc1nc(Cc2cccc3ccccc23)oc1NCc1ccco1,i,-0.25,3.3%
COc1ccc(O)c(C(=O)CC(=O)c2ccccc2)c1,2.2µM*,-0.19,6.0%
Cc1nc(N2CCC(C)CC2)c2nnn(Cc3ccccc3)c2n1,i,x,-2.4%
CCOC(=O)c1nnc(-c2ccc(C)cc2)nc1Sc1cccc(Cl)c1,i,x,3.5%
O=C(CC1Oc2ccccc2NC1=O)NCc1ccccc1 (stereo not given),i,-0.55,1.3%
COc1ccccc1CCNC(=O)c1ccc(C)o1,i,0.57,2.7%
Cc1sc2ncnc(NCC(c3ccco3)N3CCCC3)c2c1C (stereo not given),i,x,2.6%
CC1(C)Cc2c(sc3ncnc(N)c23)CO1,i,0.58,5.9%
O=C(CSc1n[nH]c(C2CCCC2)n1)NC1CCCC1,i,-0.06,6.9%
Cc1oc(-c2cccc(Cl)c2)nc1CN1CCC(C(=O)NCC2CCCO2)CC1 (stereo not given),i,-0.17,1.9%
COC(=O)c1ccc(NC(=O)CN2CCN(c3ccccc3)CC2)cc1,i,0.53,4.8%
CCCC1(C(=O)OCC)NC(c2cc(OC)c(OC)c(OC)c2)C2C(=O)N(CC)C(=O)C21 (stereo not given),i,-0.76,1.1%
Cc1cccnc1NC(=O)c1ccccc1NC(=O)C(C)(C)C,i,x,0.7%
CC(C)(C)SCCNC(=O)c1ccccc1,i,x,-0.4%
O=c1[nH]c(=O)n(Cc2ccco2)c2c1C(C(F)(F)F)(C(F)(F)F)N=C(C1CCCCC1)N2,i,-0.19,3.8%
CCCn1c(SCc2cc(=O)[nH]c3ccccc23)nc2c1c(=O)n(C)c(=O)n2C,i,1.3,-3.0%
CN(CC(=O)Nc1ccccn1)S(=O)(=O)c1ccc(Cl)cc1,i,x,1.2%

The results go on:
mol,MT1-MMP reporter,WNV NS2B-NS3 inh,Hsc70 ATP site
O=C(Nc1ccon1)c1cccc(S(=O)(=O)N2CCCCCC2)c1,i,x,-2.8%
CC(C)(C)C(=O)Nc1ccc(-c2cn3ccsc3n2)cc1,+,-0.35,-4.2%
CN(C)c1c([N+](=O)[O-])cc2[nH]c(=O)[nH]c2c1[N+](=O)[O-],i,x,4.0%
CCOC(=O)c1cnc2cc3c(cn2c1=O)CCCC3,i,-0.31,-0.2%
Cc1ccc(S(=O)(=O)N2CCC(C(=O)N3CCC[C@H]3C(=O)NC3CCS(=O)(=O)C3)CC2)cc1 (stereo not given in full),i,0.54,1.2%
Cc1nc(N)c(C#N)c(-c2ccccc2)c1C,i,-0.22,1.7%
Cc1nc(-n2nnc3ccccc32)c2c3c(sc2n1)CCCC3,i,-0.2,7.5%
CCCCSC1(SCCCC)N=C(N)C2(C#N)C(c3ccccc3)NC(C)=C(C)C12C#N (stereo not given),i,x,-4.3%
O=C(NCSC1=NCCS1)c1ccccc1,i,0.53,-0.1%
COc1ccc(CCn2c(-n3nc(C)cc3C)nc3c2c(=O)[nH]c(=O)n3C)cc1,+,-0.82,-1.2%
O=C(c1ccc(F)cc1)C(CCCCCC(CN1CCOCC1)C(=O)c1ccc(F)cc1)CN1CCOCC1 (stereo not given),i,x,1.8%
COCC(=O)Nc1c(C(=O)Nc2cccc(OC)c2)oc2ccccc12,i,0.34,-3.0%
Cc1nc(C)c(C(=O)NCc2ccc(Cl)cc2)o1,i,0.19,-0.8%
CC(C)(C)OC(=O)NCCCCCc1nnc(SCC(N)=O)o1,i,-0.35,-9.6%
CCOc1ccc(-n2c(C)nc3cc(C(=O)NCCCN4CCOCC4)ccc32)cc1,i,1.2,0.9%

Laid out differently: entries from further up
Each structure is followed by: MT1-MMP reporter	WNV NS2B-NS3 inh	Hsc70 ATP site
CCNC(=O)c1sccc1-n1cccc1
    i	x	2.6%
CCOC(=O)c1oc2ccc(S(=O)(=O)N3CCOCC3)cc2c1C
    i	0.55	7.8%
Cc1nc(-n2nnc3ccccc32)c2c3c(sc2n1)CCCC3
    i	-0.2	7.5%
CN(CC(=O)Nc1ccccn1)S(=O)(=O)c1ccc(Cl)cc1
    i	x	1.2%
O=c1[nH]c(=O)n(Cc2ccco2)c2c1C(C(F)(F)F)(C(F)(F)F)N=C(C1CCCCC1)N2
    i	-0.19	3.8%

Following part
mol,MT1-MMP reporter,WNV NS2B-NS3 inh,Hsc70 ATP site
Cc1cc(=O)n2c(n1)OC(CO)C2 (stereo not given),i,-0.31,-1.7%
COC(=O)c1ccc(NC(=O)c2ccc(CN3CCOCC3)cc2)cc1,i,0.19,-3.3%
O=C(Cn1nnc2ccccc21)N1CCCCC1,i,x,-2.1%
CCn1c(=O)cc(SCC(=O)NCCCN2CCN(c3ccccc3F)CC2)c2ccccc21,i,2.4,3.4%
CCCC(=O)Nc1cc(-c2nn(C)c(=O)c3ccccc23)ccc1OC,i,-0.56,-7.7%
Cc1n[nH]c(=O)nc1NCc1ccccc1,i,2,-5.0%
Cc1ccc(-c2ccc(=O)n(CC(=O)NCCCN3CCCCC3C)n2)cc1 (stereo not given),i,0.51,-3.9%
CCCc1nc(SCC(=O)N2CCc3ccccc32)c2c(=O)n(C)c(=O)n(C)c2n1,i,-0.83,3.8%
CCN(c1ccc(OC)cc1)S(=O)(=O)c1ccc2c(c1)CCN2C(=O)CCC(=O)O,i,-0.71,0.8%
CCOC(=O)C(C(=O)OCC)C(C(=O)OCC)N1CCOCC1 (stereo not given),i,x,-0.3%
CCOc1ccccc1C(=O)N1CCCCC1C (stereo not given),i,-1.7,11%
COC(=O)C1CCN(C(=O)C23CCC(C)(C(=O)O2)C3(C)C)CC1 (stereo not given),i,0.98,3.0%
CCOC(=O)C1CCCN(S(=O)(=O)c2c(C)c(C)cc(C)c2C)C1 (stereo not given),i,0.47,2.0%
CCC1CC(C)(C(=O)Nc2ccc(S(N)(=O)=O)cc2)OC1=O (stereo not given),i,1.3,0.6%
Cc1ccc(C)c(/C(O)=C2/C(=O)C(=O)N(CCN3CCOCC3)C2c2ccc(C)o2)c1 (stereo not given),i,-0.13,-3.5%
COc1ccccc1NC(=O)Cc1csc(N)n1,i,1.2,-0.3%
CC(=O)Nc1ccc(Oc2cc(C#N)c(C#N)cc2N2CCCCCC2)cc1,i,-0.68,-6.3%
CN(C)Cc1cn(CCC(=O)O)c2ccccc12,i,0.54,4.5%
O=S(=O)(NC1CCCC1)c1ccc(S(=O)(=O)N2CCc3ccccc32)cc1,i,0.01,0.9%
COc1ccc(Cl)cc1C(=O)Nc1ccc(N(C)C(C)=O)cc1,i,x,3.6%
Nc1nc(SCc2c(F)cccc2Cl)[nH]c(=O)c1-c1ccccc1,i,x,3.2%
CC1CCN(Cc2nc3c(c(=O)n(C)c(=O)n3C)n2CCCc2ccccc2)CC1,i,-0.37,1.3%
CCOC(=O)C1CCN(C(=O)c2cccc(NC(=O)C(CC)CC)c2)CC1,i,0.1,-1.1%
O=C(NCc1ccccc1)NS(=O)(=O)c1ccccc1Cl,i,-0.57,1.6%
O=C(CSC1=NCCS1)Nc1nc2ccccc2s1,i,x,-1.8%
CCc1cc(C(=O)Cc2nc3ccccc3[nH]2)c(O)cc1O,i,-0.57,3.5%
CCCCOC(=O)CSC1=C(C#N)C(c2ccccc2OCC)C(C#N)C(=O)N1 (stereo not given),i,-0.53,-4.0%
CCOc1ccc(NC(=O)Nc2cc(C)on2)cc1,i,0.95,5.1%
Nc1nc(Nc2ccccc2Br)nc(C(F)(F)F)n1,i,1,-2.7%
COc1ccc(CNS(=O)(=O)c2ccc3oc(C(=O)O)c(C)c3c2)cc1,i,-0.21,-3.9%
Cn1c(=O)c2c(nc(N3CCC(C(N)=O)CC3)n2CCSc2nc3ccccc3s2)n(C)c1=O,i,1.4,4.9%
COC(=O)c1ccccc1COn1c(=O)c[n+]([O-])c2ccccc21,i,0.13,0.0%
O=C(c1cccc(Cl)c1)N1CCN(Cc2ccncc2)CC1,i,-0.29,-3.3%
COc1ccc2c(c1)Cc1sc(NC(=O)c3cccs3)nc1-2,i,2.5,-11%
CC(C)CN1CCC(C(=O)NCC2CCCO2)CC1 (stereo not given),i,x,3.7%
